Screens: PubChem, National Center for Advancing Translational Sciences (NCATS)
StopGo FLuc = Primary qHTS Assay for Foot and Mouth Disease Virus Antivirals against NCGC Sytravon and CBC Compound Libraries: Firefly Luciferase Signal | HEK cells with a luciferase reporter of 2A StopGo recoding | Potency, µM (doses to about 57.5 µM), without a hit: top-dose signal change, negative = less light | 120,000 tested, 0.23% active; active = well fitted falling curve with a large enough effect; inconclusive = small, poorly fitted or top-dose-only effect; inactive = no such curve, though single readings can be large or run the other way; also: nearly all actives have a fitted effect of over 60% in size; overnight with compound
2A Renilla = Primary qHTS Assay for Foot and Mouth Disease Virus Antivirals against NCGC Sytravon and CBC Compound Libraries: Renilla Luciferase Signal | HEK cells with a luciferase reporter of 2A StopGo recoding | Potency, µM (series often up to 57.5 µM), for inactives: top-dose signal change, negative = less light | 120,000 tested, 0.32% active | AID 1745857, 2022; active means well fitted falling curve with a large enough effect; inconclusive means small, poorly fitted or top-dose-only effect; inactive means no such curve, though single readings can be large or run the other way; also: nearly all actives have a fitted effect of over 55% in size; overnight with compound
* marks the source's active call; other numbers are inactive results; ? = inconclusive; [ ] = remark or other dose. % is scaled to controls: 0 for no effect and ±100 for the full control effect; potency is read from the fitted curve at half-maximal effect.

SMILES | StopGo FLuc | 2A Renilla
CC(C)(C)c1ccc(-c2nc(SCC(=O)Nc3ccccc3F)n3[nH]c(=O)cc3n2)cc1 | 12% | -7%
CCCCc1cc(=O)oc2c(C)c(OCC(=O)NCc3cccnc3)ccc12 | -6% | -3%
CC1(C)O[C@H]2[C@@H](O1)[C@@H](C(=O)Nc1ccc(F)c(F)c1)O[C@@H]1OC(C)(C)O[C@@H]12 | 9% | 4%
O=C(NC1CCC1)c1ccc(C#CC2CC2)c[n+]1[O-] | 266%[activator] | 0%
CN(Cc1ccccc1)C(=O)c1cc(-c2ccncc2)nc2ccccc12 | 13% | 148%[activator]
Cc1ccc(C)c(NC(=O)CN2C(=O)c3cccc4cccc2c34)c1 | -21% | -12%
O=c1c2ccccc2n(Cc2ccccc2Cl)c(=O)n1CCc1ccccc1 | 21% | -4%
Cc1ccsc1C(=O)N1CCSCC1 | -4% | 3%
Cc1cccc(NC(=O)c2cccn3c(-c4ccc(F)cc4)nnc23)c1C | 6% | 0%
N#C/C(=C/c1cc(Br)ccc1OCc1ccccc1C#N)c1ccc(F)cc1 | 14% | 22%
O=C(CCn1c(=O)c2cccn2c2cccnc21)NCc1ccccc1Br | 86%[activator] | 110%[activator]
CCn1c(-n2nc(C)cc2C)nc2c1c(=O)n(Cc1c(F)cccc1Cl)c(=O)n2C | 4% | 0%
CCCCOc1ccc(CNC(=O)Cn2ncn3c(cc4cc(F)ccc43)c2=O)cc1 | -8% | -3%
CN1CCC(N(C)C(=O)c2ccc(Cl)cc2F)CC1 | 12% | 13%
Cc1ccc(CNC(=O)CSc2c3c(nc4cc(Cl)ccc24)CCCC3)cc1 | -7% | -6%
COC(=O)c1sccc1S(=O)(=O)N(CC(=O)NCc1ccccc1)c1ccccc1 | -18% | 44%[activator]
O=C(CSc1ncc(-c2ccc(Cl)cc2)o1)Nc1ccc(Cl)cc1 | 5% | -7%
COCCn1cnc2c1c(=O)n(CC(=O)Nc1ccc(F)cc1F)c(=O)n2Cc1ccccc1 | -4% | -4%
Cc1ccc(O)c(C(=O)C/C(=N/O)C(F)(F)C(F)F)c1 | 0% | 22%
CC1CCCCN1C(=O)c1cc2cc([N+](=O)[O-])ccc2oc1=O (stereo not drawn) | -4% | -8%
Cc1cc(SCC(=O)Nc2sccc2C(N)=O)nc2ccccc12 | 15% | 18%
Nc1ccc2nc(CO)[nH]c2c1 | 4% | -2%
COc1cc(OC)c(NC2=C(c3ccc(C(F)(F)F)cc3)C(=O)c3ccccc32)cc1Cl | -13% | -15%
CCN1CCC[C@H]1CNC(=O)c1c(OC)ccc(Br)c1OC | 20%[11.5 µM] | -7%
O=c1ccc2cc(S(=O)(=O)N3CCCCC3)ccc2o1 | 12% | 6%
CCCCn1c(CN2CCOCC2)nc2c1c(=O)[nH]c(=O)n2C | -4% | -5%
Cc1cc2c(cc1S(=O)(=O)NCc1ccc(N(C)C)cc1)OCC(=O)N2 | 12% | 42%[activator]
CC(=O)c1ccc(N2CCN(CCS(=O)(=O)c3ccccc3)CC2)cc1 | -6% | 7%
CCN(CCCNC(=O)c1cc2cc3cc(C)ccc3nc2s1)c1cccc(C)c1 | 74%[activator] | -6%
Cc1nc2c(cc(O)c3ccsc32)s1 | 70%[activator] | 16%
COc1ccc(C)cc1NC(=O)N(C(C)C)C1CCN(C(C)=O)CC1 | -4% | -6%
CC(Sc1nc2cc(S(=O)(=O)N(C)C)ccc2o1)C(=O)NC1CC1 (stereo not drawn) | 0% | 8%
CCc1ccccc1N1CC(c2nnc(NC(=O)c3ccco3)s2)CC1=O (stereo not drawn) | -1% | -1%
CCc1ccc(OC(C)c2nc(-c3ccc(-n4cccc4)cc3)no2)cc1 (stereo not drawn) | -11% | -6%
O=C(O)CN1CCOCC1 | -7% | -2%
Cc1ccc(C)c(NC(=O)c2cc(S(=O)(=O)N3CCCc4ccccc43)ccc2F)c1 | 0% | 2%
O=C(Nc1ccc(F)cc1Cl)c1nc2ccccc2nc1N1CCCC1 | 4% | 3%
CCCN(CCN(C)C)C(=O)Nc1sc(C(=O)OCC)c(C)c1C(=O)OCC | 14% | 2%
COc1c(Cl)cc(Cl)cc1CNC12CC3CC(CC(C3)C1)C2 | -20% | 16%
CN(C)CCOC(c1ccccc1)c1ccc(Br)cc1 (stereo not drawn) | -8%[11.5 µM] | 2%

Ordered by length of the SMILES (largest number first): some entries from above
SMILES | StopGo FLuc | 2A Renilla
CCN(CCCNC(=O)c1cc2cc3cc(C)ccc3nc2s1)c1cccc(C)c1 | 74%[activator] | -6%
CCc1ccc(OC(C)c2nc(-c3ccc(-n4cccc4)cc3)no2)cc1 (stereo not drawn) | -11% | -6%
COc1c(Cl)cc(Cl)cc1CNC12CC3CC(CC(C3)C1)C2 | -20% | 16%
CCN1CCC[C@H]1CNC(=O)c1c(OC)ccc(Br)c1OC | 20%[11.5 µM] | -7%
CN(C)CCOC(c1ccccc1)c1ccc(Br)cc1 (stereo not drawn) | -8%[11.5 µM] | 2%
Nc1ccc2nc(CO)[nH]c2c1 | 4% | -2%

(list continues)
SMILES | StopGo FLuc | 2A Renilla
CC(C)(C)c1ccc(Oc2ccc(C#N)c(C#N)c2)cc1 | 21% | -4%[1.06 µM]
Cc1ccccc1OCC(=O)Nc1c(C(=O)Nc2ccccc2F)oc2ccccc12 | 0% | 1%
COc1ccccc1CC(=O)Nc1cccc(C(=O)NC(C)(C)C)c1 | 19% | 13%
CSc1ccc(/C=C(/C#N)C(=O)NC2CCCC2)cc1 | 0% | 122%[activator]
N#CCOC(=O)c1cc(-c2cccs2)nc2ccccc12 | 0% | -5%
Cc1[nH]c(SCC(=O)NCC2(c3ccccc3)CC2)nc1Cc1ccccc1 | -10% | 21%
O=C(Cc1c[nH]c2ccccc12)OCc1ccc(Cl)cc1Cl | 80%[activator] | -1%
COc1cccc(-c2nc(SCC(=O)Nc3nccs3)c(-c3ccc(Cl)cc3)[nH]2)c1 | ? | -30%
CCc1ccc(NC(=O)Cn2nnc(C(=O)Nc3ccc(F)cc3)c2N)cc1 | 11% | 8%
O=C(Nc1cccc(Br)c1)c1cc(S(=O)(=O)N2CCCCC2)c[nH]1 | -16% | 35%[activator]
CC1CCN(c2nc3c(s2)c(=O)n(C(C)C)c(=O)n3CC(=O)Nc2cccc(Cl)c2)CC1 | 10% | 0%
Cc1cc(-c2ccc(C)c(S(=O)(=O)Nc3cccc(C#N)c3)c2)on1 | ? | 24%
O=C(NCC1(N2CCOCC2)CCSC1)Nc1ccccc1F (stereo not drawn) | 4% | 0%
[O-][n+]1cccc(CO)c1 | ? | -3%
COC(=O)c1ccccc1-c1ccc(/C=C(\C#N)c2nc3ccccc3[nH]2)o1 | 2% | 108%[activator]
O=C(Cn1c(=O)c2c(ncn2C2CCCC2)n(Cc2ccccc2)c1=O)NCc1ccc(Cl)cc1 | -14% | -6%
COc1cc(-c2nc3cc(NC(=O)c4ccc(Cl)cc4)ccc3o2)cc(OC)c1OC | 2% | 1%
CC(C)(C)c1csc(NC(=O)C2CC(=O)N(Cc3ccco3)C2)n1 (stereo not drawn) | 0% | 4%
Cc1ccc(CN(C)C(=O)c2cc3ccc(C(C)C)cc3[nH]2)o1 | 36%[activator] | 5%
CC(CN1CCOCC1)C(=O)O (stereo not drawn) | 15% | 15%
CCN(CC)S(=O)(=O)c1cccc(C(=O)Nc2ccccc2C(=O)Nc2ccc(Cl)cc2)c1 | -11% | -9%
CC1(C)S[C@@H]2[C@H](NC(=O)Cc3ccccc3)C(=O)N2[C@H]1C(=O)O (tested in a mixture with another compound) | -3%[11.5 µM] | -1%
CCc1nn2c(=O)cc(COc3cccc(C)c3)nc2s1 | 48%[activator] | -5%
CC(C)Sc1ccc(Cl)nn1 | -1% | -7%
O=C(Nc1nnc(C2CC2)s1)c1cc(-c2ccncc2)nc2ccccc12 | -13% | 3%
CC(C)c1ccc(NC(=O)c2cc(S(=O)(=O)NCCc3ccccc3)ccc2F)cc1 | 2% | 161%[activator]
COc1ccc(OC)c(CCNC(=O)c2cc3c(=O)oc4ccc(C)cc4c3s2)c1 | -7% | -6%
COc1ccc2oc(-c3ccc(C)c(NC(=O)c4ccc(-c5ccccc5[N+](=O)[O-])o4)c3)nc2c1 | 24% | -13%
CCCn1c(Cn2nnc(-c3ccc(F)cc3)n2)nc2cc(S(=O)(=O)N3CCOCC3)ccc21 | -7% | 12%
CCCN(CCC)CCNC(=O)C1CCN(c2nc3ccc(CC)cc3s2)CC1 | 62%[activator] | -9%
CC(=O)c1cccc(NC(=O)C2(c3ccccc3)CCCC2)c1 | 2% | 7%
CCc1sc(Nc2cccc(C)c2C)nc1-c1cc2cccc(OC)c2oc1=O | -8% | -3%
COc1ccc(-c2nc(CS(=O)(=O)CC(=O)NCc3cccnc3)c(C)o2)cc1 | 13% | 6%
O=C1C=C(NCCc2ccc(Cl)cc2)C2(CCCCC2)O1 | 2% | 52%[activator]
COc1ccc(NC(=O)c2ccco2)cc1NC(=O)c1cc(OC)c(OC)c(OC)c1 | 30%[activator] | 0%
CCC(C)c1ccc(NC(=O)c2ccccc2OC)cc1 (stereo not drawn) | 228%[activator] | 18%
CCCCn1c(=O)n(CC(C#N)CCC#N)c(=O)c2c1nc(CO)n2CCC (stereo not drawn) | -16% | 9%
CCOc1ccccc1NC(=O)/C=C/c1ccc2ccccc2n1 | 0% | ?
COc1cc(NC(=O)Cn2c(C)cc(C)c(C#N)c2=O)cc(OC)c1 | -18% | -14%
O=C(O)C(c1c[nH]c2ccc(Br)cc12)N1CCN(c2nsc3ccccc23)CC1 (stereo not drawn) | -6% | -11%

Reformatted as comma-separated lines: part of the list above.
Structure,StopGo FLuc,2A Renilla
COc1ccc(C)cc1NC(=O)N(C(C)C)C1CCN(C(C)=O)CC1,-4%,-6%
CC(Sc1nc2cc(S(=O)(=O)N(C)C)ccc2o1)C(=O)NC1CC1 (stereo not drawn),0%,8%
CCc1ccccc1N1CC(c2nnc(NC(=O)c3ccco3)s2)CC1=O (stereo not drawn),-1%,-1%
CCc1ccc(OC(C)c2nc(-c3ccc(-n4cccc4)cc3)no2)cc1 (stereo not drawn),-11%,-6%
O=C(O)CN1CCOCC1,-7%,-2%

(list continues)
SMILES | StopGo FLuc | 2A Renilla
CCCCN1C(=O)C(O)(CC(=O)c2c(C)cc(C)cc2C)c2ccccc21 (stereo not drawn) | -5% | 20%
O=C(Nc1ccc(Cl)cc1Cl)c1ccccc1-c1ccccc1 | 18% | 14%
O=[N+]([O-])c1cc(-c2nc(-c3ccccc3)no2)ccc1N1CCCCC1 | -109% | 5%
CCNC(=O)C1CCN(CC(C)C)CC1 | 0% | -1%
Cc1ccc(S(=O)(=O)N(Cc2ccc(C#N)cc2)c2nc3nc(C)cc(C)n3n2)cc1 | -16% | 196%[activator]
O=C(Nc1ccccc1F)c1ccc(Cn2nc(N3CCN(c4ccccc4)CC3)ccc2=O)o1 | ? | ?
CC(NC(=S)NNC=O)c1ccccc1 (stereo not drawn) | -2% | -12%
CC(C)Cc1ccc(-c2cnc(CCC(=O)NC3=NCCS3)o2)cc1 | 2% | 12%
COC(=O)c1[nH]c2ccccc2c1NC(=O)CCC1CCCC1 | 18% | 7%
O=C(Nc1ccc(F)cc1)C(Sc1ccccn1)c1ccccc1 (stereo not drawn) | 9% | 45%[activator]
Cc1cc(C)cc(NC(=O)c2cc(C)nc3ccccc23)c1 | -4% | -7%
Fc1ccc(CNC(=S)NCCc2ccc(Cl)cc2)cc1 | 4% | 112%[activator]
COc1cccc(C2=NN(C(C)=O)C(c3cn(-c4ccccc4)nc3-c3cccs3)C2)c1 (stereo not drawn) | -20% | -18%
O=C(O)CCC(=O)c1cccs1 | 6% | 0%
COC(=O)[C@]12C[C@H](CC(=O)NCCC(C)C)C(=O)N(CCC3=CCCCC3)C1=C[C@H](C(C)C)O[C@@H]2C1CC1 | -11% | 90%[activator]
Cc1cccc(NC(=O)C(C#N)C(=O)CCc2ccccc2)c1 (stereo not drawn) | 130%[activator] | 0%
Cc1c(C(=O)NCc2ccccc2Cl)sc2nc(-c3ccc(F)cc3)cn12 | -6% | 15%
CSc1nnc2[nH]c(=O)cc(C)n12 | -4% | -9%
COc1ccc(OC)c(-c2cc3ccc(O)cc3oc2=O)c1 | 34%[activator] | 101%[activator]
Cc1cc(F)ccc1NC(=O)c1sc2nc(-c3cccs3)ccc2c1N | 132%[activator] | -1%
CCCCCNC(=O)c1ccc2c(c1)nc(C)n2-c1cccc(C)c1 | 15% | 8%
Cc1c(NC(=O)CN(c2cccc(Cl)c2Cl)S(C)(=O)=O)c(=O)n(-c2ccccc2)n1C | 6% | 2%
CCN(CC)C(=O)c1sc(NC(=O)C2CCCCC2)c(C(=O)OC)c1C | -12% | 46%[activator]
CCN(CC)c1ccc(C2C(C(=O)Nc3ccccc3F)=C(C)NC3=C2C(=O)CCC3)cc1 (stereo not drawn) | 50%[activator] | 178%[activator]
CC(c1cc2ccccc2o1)N(C)Cc1nc(-c2ccc(Cl)cc2)no1 (stereo not drawn) | 34%[activator] | 6%
Cc1nc(NC(=O)C(C)Sc2nnc(-c3ccccc3F)n2C(C)C)sc1C (stereo not drawn) | ? | 9%
O=C(NC(Cc1ccccc1)C(=O)N1CCN(c2ccccc2)CC1)c1cccs1 (stereo not drawn) | -12% | 44%[activator]
CN(C)c1ccc(C(=O)/C=C/c2cccs2)cc1 | 149%[activator] | 15%
O=C(Cn1cc(SCc2ccc(C(F)(F)F)cc2)c2ccccc21)N1CCCCC1 | 74%[activator] | 25%
CCOc1ccc(NC(=O)CSCc2cc(=O)n3ccccc3n2)cc1 | 3% | 1%
